# Screens from PubChem BioAssay.
# Yeast UUG start: modulators of yeast start codon fidelity, primary screen, whole organism, S. cerevisiae, single point, plate reader; actives 0.13% (n = 350,000); S. cerevisiae UUG-firefly luciferase reporter, luminescence/redox ratio; activity score, % at 18.7 µM; AID 602363, 2012;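 active means replicate mean at a twofold rise or more, about +100% in these data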;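 further: firefly luciferase made from a UUG start codon reports start codon fidelity; reporter light over untreated wells divided by growth signal over untreated wells; some hits fall short of that in this replicate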
# HIV Env fusion: inhibitors of HIV-1 Env-driven cell-cell fusion, primary screen, HeLa-JRFL effector, CEM21 target cells, luciferase. actives 1.1% (n = 360,000). inhibition, % at 12.3 µM. AID 651610, 2012;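 active means mean replicate inhibition score of at least 50 and every replicate individually at or above 50; inconclusive means only one of the two criteria met; inactive means mean below 50 and not all replicates reaching 50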;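 further: 0% = plate neutral controls and 100% = maraviroc near 300 nM; one replicate is shown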
# eIF4H inh: human eIF4H binding inhibitors, primary screen, translation initiation inhibitor project, biochemical, uHTS, fluorescence polarization | Eukaryotic translation initiation factor 4H (Homo sapiens), Q15056 | eIF4H fluorescence polarization binding assay | inhibition, % at 35 µM | actives 0.94% (n = 290,000) | AID 2012, 2009;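 active means 50% or more with normal probe brightness, or confirmed in later tests; inconclusive means above 50% with abnormal brightness, or retests that disagree; inactive means below 50% or failed in later tests; about a fifth of its hits are not listed in these tables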;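 further: calls also rest on retests at 20 µM and on dose response follow-up; 0% = protein and probe with vehicle and 100% = probe without protein; strong numbers were not always called active; many hits fall short of the cut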
# PABP FP inh: PABP poly(A) RNA binding inhibitors, primary screen, biochemical, fluorescence polarization, uHTS; Polyadenylate-binding protein 1 (Homo sapiens), P11940; inhibition, % at 35 µM; actives 1% (n = 290,000);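 active means 50% or more with normal probe brightness, or confirmed in later tests; inconclusive means above 50% with abnormal brightness, or retests that disagree; inactive means below 50% or failed in later tests; about a fifth of its hits are not listed in these tables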;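 further: calls also rest on retests at 20 µM and on dose response follow-up; controls were probe without protein and protein plus probe with vehicle; some compounds called inactive have numbers as strong as hits; many hits fall short of the cut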
# Target sequence (P11940 whole entry, looked up): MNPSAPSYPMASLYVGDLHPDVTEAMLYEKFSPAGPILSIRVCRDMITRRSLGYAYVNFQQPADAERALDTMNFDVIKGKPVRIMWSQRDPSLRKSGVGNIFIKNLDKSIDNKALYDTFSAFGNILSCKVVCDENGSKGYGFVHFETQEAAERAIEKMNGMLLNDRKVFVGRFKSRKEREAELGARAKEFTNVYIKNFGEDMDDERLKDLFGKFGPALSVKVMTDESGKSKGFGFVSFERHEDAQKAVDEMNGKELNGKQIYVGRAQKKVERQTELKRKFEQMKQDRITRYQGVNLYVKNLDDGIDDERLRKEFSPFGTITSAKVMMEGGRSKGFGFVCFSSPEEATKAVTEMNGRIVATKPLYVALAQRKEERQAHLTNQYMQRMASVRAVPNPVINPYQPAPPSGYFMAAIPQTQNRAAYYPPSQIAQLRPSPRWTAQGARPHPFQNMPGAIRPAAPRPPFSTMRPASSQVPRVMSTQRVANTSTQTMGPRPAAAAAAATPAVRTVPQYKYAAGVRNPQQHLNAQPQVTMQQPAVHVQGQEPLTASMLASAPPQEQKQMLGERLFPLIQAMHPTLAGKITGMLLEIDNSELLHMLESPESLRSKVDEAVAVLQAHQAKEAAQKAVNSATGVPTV
# CSC inhib: cancer stem cell viability inhibitors, primary screen, luminescence; cancer stem cell-like cells viability; inhibition, % at 7.5 µM; actives 1.1% (n = 300,000);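 active means mean at 75% or more and at least half the replicates too; inconclusive means mean and replicates disagree; tested in HMLE shEcad cells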;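 further: 0% = median of negative and 100% = median of positive control wells; the first replicate is given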
# MT1-MMP act inh: blockers of MT1-MMP proenzyme processing, primary screen, HT1080 RFP-PRO-GFP cells, GFP/RFP fluorescence | Matrix metalloproteinase-14 (Homo sapiens), P50281 | AID 651647, 2012 | GFP/RFP ratio fluorescence, overnight; percent of plate control window, DMSO zero | GFP/RFP ratio change, % at 20 µM | actives 0.061% (n = 360,000);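 active means GFP/RFP ratio change of at least 30% with cell ATP level not reduced by more than half and red fluorescence within 50% of control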; further: strong numbers were not always called active
#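 system = RFP-PRO-GFP reporter HT1080 cells | dosing = 20 µM single dose, 1% DMSO | timing = overnight cell settling, then overnight compound exposure, 37 °C, 5% CO2 | read-out basis = GFP/RFP fluorescence ratio | controls = DMSO and RFP-L50D-GFP cell wells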
# Rce1 inh: yeast Rce1p protease inhibitors, primary screen, biochemical, fluorescence, cell-free homogeneous. CAAX prenyl protease 2 (Saccharomyces cerevisiae (strain ATCC 204508 / S288c)), Q03530. yeast membranes, quenched prenylated peptide cleavage fluorescence. calls only. actives 0.27% (n = 290,000). AID 2563, 2010;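 active means fall in fluorescence gain of 50% or more versus controls, with final raw signal at or below 3038400; inconclusive means same 50% fall but final raw signal above 3038400; inactive means fall in fluorescence gain under 50%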;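 further: plate controls were neutral control wells for no effect and wells lacking membranes for full effect; tested at 10 µM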
# eIF4H inh retest: also measured in eIF4H inh; calls as there; inhibition, %; compound at 20 µM; confirmation average;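 mean of two retest wells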
# PABP FP inh retest: recorded beside PABP FP inh, whose call it bears; inhibition, %; compound at 20 µM; confirmation repeats;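 mean of two retest wells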
# MT1-MMP act inh RFP: second read-out of MT1-MMP act inh, no call of its own (marks repeat the call); RFP signal change, %; measured here: RFP expression control read;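 0 = vehicle wells; hits needed this value within 50% of zero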
# Numbers without * were called inactive; i = inactive; ? = inconclusive; . = not tested or not shown.
SMILES,Yeast UUG start,HIV Env fusion,eIF4H inh,PABP FP inh,CSC inhib,MT1-MMP act inh,MT1-MMP act inh RFP,Rce1 inh,others
COc1ccc(NS(=O)(=O)c2cc(NC(=O)C3CC3)ccc2N2CCOCC2)cc1,-4,1,10,-11,-16,1,1,i,
Cc1ccc2c(Cl)cc(Cl)c(OCC(=O)Nc3cccc(S(=O)(=O)N(C)C)c3)c2n1,.,.,-9,3,44,5,0,i,
CC(=O)Nc1ccc(S(=O)(=O)N(C2=NCC(C)S2)c2ccccc2)cc1 (centres undefined),-17,.,5,5,-6,-3,-3,i,
Fc1cccc(Cl)c1CNc1ccc(N2CCCC2)cc1,-8,-16,15,-4,6,5,6,i,
O=[N+]([O-])c1cccc(CSC2=NCCN2S(=O)(=O)c2ccccc2)c1,-19,-78,-17,-1,-6,3,-1,i,
CSc1ncccc1C(=O)NC1CCN(Cc2ccccc2)CC1,-12,-13,-4,-2,0,1,4,i,
Cc1cccc(N2CCN(C(=O)c3ccc(NC(=O)CC4SC(N5CCCC5)=NC4=O)cc3)CC2)c1C (centres undefined),9,9,.,.,-7,-5,-2,.,
O=C(CSc1ccc(-c2ccc(Br)cc2)nn1)N1CCOCC1,7,-2,-9,-2,-8,4,-3,i,
COc1cc2c(cc1O)C(SC)=NC(C)(C)C2,-2,.,-5,-3,12,2,7,.,
CC1(c2ccc(OC(F)F)cc2)NC(=O)N(CC(=O)Nc2ccc(OC(F)F)cc2)C1=O (centres undefined),-7,17,0,2,-5,3,0,i,
COC(=O)[C@@H](Cc1ccccc1)NC(=O)CC[C@H]1O[C@@H](n2cc(C)c(=O)[nH]c2=O)C[C@@H]1O,6,18,.,.,.,0,4,.,
CN(C)C(=O)c1cccc(-c2cnc3sc(NCc4ccc5c(c4)OCO5)nn23)c1,-14,68*,.,.,.,-22,-7,.,
CN(C)S(=O)(=O)c1ccc(C(=O)NCc2ccco2)cc1,.,-10,4,-10,-8,1,2,i,
CN(C)S(=O)(=O)c1cccc(C(=O)NCC2CCCCC2)c1,-9,-4,-4,3,-9,8,5,i,
Cc1cc(/C=C2\SC(=S)N(Cc3ccco3)C2=O)c(C)n1-c1cccnc1,3,-13,?,?,.,-199,0,i,
CCc1c(C)nc2c(C#N)c(C)[nH]n2c1=O,-7,.,-12,-8,2,-4,-2,i,
CCC(CC)C1=NN2C(=N)/C(=C\c3cc(C)n(-c4cccc(C)c4)c3C)C(=O)N=C2S1,-25,8,17,1,4,-14,-8,i,
COc1ccc(S(=O)(=O)n2nc(C)c(S(=O)(=O)N3CCOCC3)c2C)cc1OC,.,.,13,2,-16,.,.,i,
CCOC(=O)N1CCN(C(=O)c2ccc3c(=O)n(Cc4ccccc4)c(=S)[nH]c3c2)CC1,-2,-19,-4,1,-8,-4,-3,i,
Cc1sc2ncn(CC(=O)N3CCCC(C)C3)c(=O)c2c1S(=O)(=O)N1CCCCC1 (centres undefined),-11,-4,-10,6,-19,-7,-3,i,

# Copied from the entries so far for reference:
SMILES,Yeast UUG start,HIV Env fusion,eIF4H inh,PABP FP inh,CSC inhib,MT1-MMP act inh,MT1-MMP act inh RFP,Rce1 inh,others
CCOC(=O)N1CCN(C(=O)c2ccc3c(=O)n(Cc4ccccc4)c(=S)[nH]c3c2)CC1,-2,-19,-4,1,-8,-4,-3,i,
Cc1sc2ncn(CC(=O)N3CCCC(C)C3)c(=O)c2c1S(=O)(=O)N1CCCCC1 (centres undefined),-11,-4,-10,6,-19,-7,-3,i,

# (next part)
SMILES,Yeast UUG start,HIV Env fusion,eIF4H inh,PABP FP inh,CSC inhib,MT1-MMP act inh,MT1-MMP act inh RFP,Rce1 inh,others
CC(C)C(=O)Nc1cccc(C(=O)Nc2ccc(S(=O)(=O)Nc3nccs3)cc2)c1,-10,-15,-8,8,-2,0,-3,i,
O=C(O)c1c(C(=O)O)c(-c2ccc(F)cc2)n2c1CCC2,.,17,1,-4,-17,5,1,i,
Cc1c(N2C(=O)c3cccc4cccc(c34)C2=O)cnn1C,.,9,6,11,4,-7,-1,i,
C#CCNC(=O)C(C)c1ncc(C(F)(F)F)cc1Cl (centres undefined),-3,15,1,27,-14,1,2,i,
Cc1cc2nc(-c3cccc(NC(=O)c4ccc(Br)o4)c3C)oc2cc1C,-23,-52,-8,5,4,2,-1,i,
Cn1ncc(Br)c1C(=O)N1CCCC1,-15,16,-7,-4,-9,-1,-1,.,
CN(C)/C=N/c1c(C#N)cnn1-c1ccccc1,-36,.,-2,3,-15,7,-4,i,
Nc1c(S(=O)(=O)c2ccccc2)c2nc3ccccc3nc2n1Cc1ccco1,-19,32,?,?,-5,-113,10,i,
COc1ccc2cc(C(C)c3nc4ccccc4c(=O)n3N)ccc2c1 (centres undefined),-1,17,-8,-1,.,8,-12,i,
CCc1c(C)nc2ncnn2c1N1CCC(C(=O)N2CCN(c3ccc(F)cc3)CC2)CC1,5,41,1,-3,.,-1,-8,i,
COC(=O)c1ccccc1S(=O)(=O)N1CCC(C(=O)Nc2ccccc2N2CCOCC2)CC1,29,-6,.,.,.,-5,-4,.,
COc1ccc(CCNC(=O)/C(C#N)=C/c2ccc(OCC(=O)NCC3CCCO3)cc2)cc1OC (centres undefined),.,12,-16,-5,-11,-8,-12,i,
CCCCC1CC(CSc2ncn[nH]2)OC1=O (centres undefined),-17,-63,4,17,-8,2,3,i,
Cc1cc2oc(C(=O)N(Cc3ccccc3)c3ccccn3)cc(=O)c2cc1Cl,5,4,-2,6,-14,-3,-5,i,
CC1CCCCN1CCn1c(=S)[nH]c2cc3c(cc2c1=O)OCO3 (centres undefined),-14,-5,-3,-4,2,-3,0,i,
NS(=O)(=O)c1ccc(O)c(N2C(=O)c3cccc4c(C(=O)O)ccc(c34)C2=O)c1,.,0,32,23,-3,1,4,i,
Cc1ccc(CNC(=O)COc2cc(O)c3c(c2)OC(C)(C)CC3=O)cc1,-5,.,10,8,-8,-1,-1,i,
Cc1ccc(-c2cnc(C(O)c3cccc(C)c3C)[nH]2)cc1 (centres undefined),-22,-15,.,.,.,3,-1,.,
Cc1ccccc1-c1ncc(CN2CCN(C3CCCC3)C(CCO)C2)cn1 (centres undefined),.,-12,101,-8,5,2,6,i,eIF4H inh retest=-11;PABP FP inh retest=6
O=C1c2ccccc2C(=O)N1CC(O)CN1CCOCC1 (centres undefined),-22,.,-6,0,-11,-9,1,i,
Cc1ccc(S(=O)(=O)N(CC2CO2)c2cc(Cl)ccc2Cl)cc1 (centres undefined),4,10,-1,13,-4,-3,-3,i,
Cc1cccc(CN2C3=NCCCN3c3ccccc32)c1,3,18,8,16,-7,-2,2,i,
CCOc1ccc(NC(=O)CN2CCN(CC(=O)Nc3ccc4c(c3)OCCO4)CC2)cc1,-10,.,7,7,2,2,10,.,
Cc1cc(S(=O)(=O)N2CCOCC2)ccc1OCC(=O)N1CCOCC1,-8,11,-10,-7,-13,0,2,i,
O=C(NCc1ccccc1Cl)c1ccc2nc([C@@H]3O[C@H](CO)[C@@H](O)[C@H]3O)[nH]c2c1,-22,-21,.,.,.,1,4,.,
Cc1ccc(C(CCN)c2ccco2)cc1 (centres undefined),-21,-9,0,6,1,-6,4,i,
C/C(=N\NC(=O)Cc1ccc(Br)cc1)c1cccnc1,-15,46,-3,3,-13,-1,-1,i,
COc1cccc2cc(C(=O)c3ccccc3)oc12,.,-35,-21,-8,3,-2,-3,i,
O=C(CCCc1c[nH]c2ccccc12)N[C@@H](Cc1c[nH]c2ccccc12)C(=O)O,-1,4,-6,5,-3,-1,1,i,
CC(C)CCn1c(SCC#N)nc2c(sc3ccccc32)c1=O,-10,44,2,1,-6,5,2,.,
CCn1c(SCC(=O)c2ccc(O)c(O)c2)nnc1-c1ccccc1OC,-7,.,6,11,-5,3,-3,i,
CCS(=O)(=O)N1CCC(C(=O)N2CCN(c3ccccc3)CC2)CC1,-5,-5,-2,-6,-18,5,4,i,
CCOc1cc(-c2noc(CCCC(=O)NC3CCCCC3)n2)ccc1OC,-8,8,-9,5,-8,4,-5,.,
Cc1ccc(S(=O)(=O)Nc2c(C)n(C)n(-c3ccccc3)c2=O)cc1C(=O)OC(C)C(=O)N(C)c1ccccc1 (centres undefined),6,-18,9,-7,-10,-2,1,i,
Cc1ccc(N(CC(=O)NC(C)(C)C)C(=O)CS(=O)CC(=O)Nc2ccc3c(c2)OCO3)cc1 (centres undefined),.,4,-8,-2,-7,1,2,i,
Cc1ccsc1/C=N/n1cnc2sc(C)c(C)c2c1=O,12,.,-6,-2,3,-5,3,i,
CC1CN(c2nc3c(c(=O)n(C)c(=O)n3C)n2Cc2c(Cl)cccc2Cl)CC(C)O1 (centres undefined),.,-8,.,.,-17,1,-1,i,
COc1ccc(C(=O)N2CC(=O)Nc3ccccc32)cc1S(=O)(=O)N1CCOCC1,-39,24,8,-7,.,-3,1,i,
COc1ccc(CCNC(=O)C(=O)NCC2OCCN2S(=O)(=O)c2cc(F)ccc2F)cc1OC (centres undefined),-2,13,8,-4,-7,2,-1,i,
O=S(=O)(NCCc1ccccn1)c1ccc(-c2ccccn2)s1,-25,10,-3,7,-3,3,-1,.,
CC(C)CCN1CCN(Cc2nc(-c3ccccc3)cs2)CC1CCO (centres undefined),.,17,5,2,37,1,1,i,
O=C(Nc1nccs1)C1CCCN1S(=O)(=O)c1ccc(Cl)cc1 (centres undefined),-26,.,1,11,-6,-1,-3,i,
O=S(=O)(c1cccc(COc2ccc(Cl)cc2Cl)c1)N1CCOCC1,-6,19,-7,-11,.,-5,-7,i,
COc1ccc(-n2nc3c(c2NC(=O)c2ccco2)CS(=O)(=O)C3)cc1,5,5,-1,-3,-23,1,3,i,
O=C1CCC(C(=O)OCC(=O)Nc2cc(Cl)ccc2F)=NN1,-20,-13,.,.,-13,-1,-1,.,
Cc1cnc(C(=O)OCC(=O)NCCCc2ccccc2)cn1,.,-3,-1,-1,4,0,8,i,
Cc1ccc2nc(NC(=O)COC(=O)c3ccco3)sc2c1,.,-16,13,4,-5,2,-5,i,
CCOC(=O)C1CCN(C(=O)CCS(=O)(=O)c2ccc3c(c2)n(C)c(=O)c(=O)n3C)CC1,-10,6,-4,4,8,-2,5,i,
CCCC(=O)Nc1ccc2c(c1)nc(CCN1CCCCC1)n2C,-15,5,-3,3,-9,0,-3,i,
Cn1cc(S(=O)(=O)N2CCOCC2)cc1C(=O)Nc1cccc(Cl)c1,-11,98*,-12,-3,0,2,2,i,
CC(=O)N1c2ccc(S(=O)(=O)N3CCC(C(=O)NCc4ccccc4)CC3)cc2CC1C (centres undefined),17,-6,-23,0,-10,2,-3,i,
COc1ccc(-n2c(C)cc(C(=O)CN3CCCCC3)c2C)cc1,-10,-5,-1,11,17,-2,5,i,
CCC(=O)c1cc2c(cc1NC(=O)c1ccccc1)OCCO2,-10,.,0,5,-11,-1,-4,i,

# Hits appear at their usual frequency; overall some 2.9% were active at least once.
